HPGD inh – qHTS Assay for Inhibitors of HPGD (15-Hydroxyprostaglandin Dehydrogenase); 15-hydroxyprostaglandin dehydrogenase [NAD(+)] (Homo sapiens), P15428; purified HPGD, NADH fluorescence kinetic, PGE2 substrate; Potency, µM, without a hit: at the top dose activity change, negative = inhibition, most hits filed as inhibitors; 150,000 tested, 4.3% active; AID 894, 2007; active = well fitted inhibition curve with a large enough effect (not every such curve was filed as active); inconclusive = small, poorly fitted or top-dose-only effect, or another doubt; inactive = no such curve, though single readings can be large or run the other way;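 also: top concentration of the series not given in the record; plate controls included wells without enzyme; inactives centre near -10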
Target sequence (P15428 whole entry, looked up): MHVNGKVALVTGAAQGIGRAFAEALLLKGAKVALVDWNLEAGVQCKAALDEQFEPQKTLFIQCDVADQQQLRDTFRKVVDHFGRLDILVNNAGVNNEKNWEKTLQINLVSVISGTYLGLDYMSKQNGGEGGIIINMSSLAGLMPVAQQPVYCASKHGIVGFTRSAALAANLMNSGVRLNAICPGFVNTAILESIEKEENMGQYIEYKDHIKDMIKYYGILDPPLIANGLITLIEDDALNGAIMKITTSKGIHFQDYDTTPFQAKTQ
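20 nM HPGD preincubated 15 min at room temperature with compound in 50 mM Tris-HCl pH 8, 0.01% Tween 20. Started with 1 mM NAD+ and 30 uM prostaglandin E2; NADH fluorescence (360/450 nm) read 5 times over 30-s intervals, last minus first.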
* marks the source's active call; other numbers are inactive results; ? = inconclusive. % is scaled to controls: 0 for no effect and ±100 for the full control effect; potency is read from the fitted curve at half-maximal effect. The list is partial (hit frequency here may not be typical).

HPGD inh	structure
?	Cc1nn(-c2ccccc2)c2c1C(c1ccc(F)cc1)C(C#N)=C(N)O2 (stereo unspecified)
-1%	COc1ccc(NC(=O)CC2C(=O)N(c3ccc(OC)cc3)C(=O)N2C(C)C)cc1 (stereo unspecified)
-9%	Brc1cccc(OCCn2ccnc2)c1
-6%	CCCC(c1nnnn1C1CCCCC1)N1CCN(C2CCCC2)CC1 (stereo unspecified)
-9%	NC(=O)c1cc(Cl)cn(-c2ccccc2)c1=O
-4%	COc1ccccc1N1CCN(c2ncnc3nc[nH]c23)CC1
1%	NC(=O)C1(N2CCCCC2)CCN(CC(=O)Nc2cc(Cl)ccc2Cl)CC1
?	CC(Nc1oc(-c2ccco2)nc1C#N)c1ccccc1 (stereo unspecified)
-25%	CC(=O)Nc1ccc(C2(O)COc3ccccc3O2)cc1 (stereo unspecified)
-10%	O=C(Nc1cccnc1)c1cn(-c2ccccc2)nc1-c1cccs1
-19%	Cc1ccc(CNC(=O)CSc2nc3ccccc3c3nc(C)nn23)cc1
-14%	O=C(c1cc(Cl)ccc1Cl)N1CCN(c2ccccn2)CC1
?	Cc1cc(C)n(CC(O)COc2cccc(OCC(O)Cn3nc(C)cc3C)c2)n1 (stereo unspecified)
-17%	CC(Sc1ccc(Cl)cc1)C(=O)Nc1ccccc1-c1ccccc1 (stereo unspecified)
?	CCCCn1c(SCC(=O)NCCOC)nc2ccc(N3CCOCC3)cc2c1=O
-7%	COc1cccc(C2CC(C(F)(F)F)n3ncc(C(=O)O)c3N2)c1 (stereo unspecified)
-23%	CCN1CCc2nc(NC(=O)Cc3ccc4c(c3)OCCO4)sc2C1
-11%	C=CCn1c(-c2ccc(C)cc2)nc2ccccc21
?	C/C(=N/NC(=O)c1ccoc1C)c1ccc(N2CCOCC2)cc1
-8%	O=C(NC(Cc1ccccc1)C(=O)O)c1ccc(S(=O)(=O)N2CCCC2)cc1 (stereo unspecified)
-2%	O=C(CN1C2=NCCN2c2ccccc21)C12CC3CC(CC(C3)C1)C2
-1%	COc1ccc(NC(=O)CSc2nnc(-c3ccccn3)n2Cc2ccco2)cc1OC
-10%	COc1ccc(/C=C/C(=O)NCc2ccccn2)cc1
16µM*	O=C1/C(=C/c2cccnc2)Oc2cc(OS(=O)(=O)c3ccc(F)cc3)ccc21
-14%	COc1ccccc1N1CCN(C(=O)CSc2nc(-c3ccccc3)cc(=O)[nH]2)CC1
-4%	CNC(=S)NNC(=O)c1sccc1OCc1ccc(C)cc1
-13%	Cc1nc2ccc(S(=O)(=O)Nc3ccccc3C)cc2s1
-20%	Cn1c(SCC(=O)c2ccccc2)nnc1C1CC1
-12%	O=c1c2c3c(sc2nc2n1CCCCC2)CCC3
-13%	COCCCNS(=O)(=O)c1ccc2c(c1)OCCO2
-17%	O=C(NNc1cccc(Cl)n1)Nc1cccc(C(F)(F)F)c1
-3%	COc1cccc(N2C(=O)CC(N3CCN(C(=O)c4ccco4)CC3)C2=O)c1 (stereo unspecified)
-19%	Cc1ccccc1CSCCNC(=O)COc1ccc(Cl)cc1
-9%	CC1C(NC(=O)/C(=N/OC(C)(C)C(=O)O)c2csc(N)n2)C(=O)N1S(=O)(=O)O (stereo unspecified)
?	COc1cccc(Cn2nnc(C(=O)Nc3cc(C)ccc3OC)c2N)c1
-13%	COc1ccccc1NC(=O)Nc1ccc2c(c1)nnn2C
?	COC(=O)c1ccc(NC(=S)N2CCC(C(N)=O)CC2)cc1
16µM*	Cc1ccc(SCCNC(=O)c2ccccc2)cc1
-6%	O=C(Oc1cccc(N2C(=O)CCC2=O)c1)C1CC(=O)N(c2ccc(F)cc2)C1 (stereo unspecified)
1%	CCN(CC)S(=O)(=O)c1cc(NC(=O)C(C)N2CCN(Cc3ccc4c(c3)OCO4)CC2)ccc1C (stereo unspecified)
-8%	Cc1nonc1NC(=O)Nc1cccnc1
-18%	O=S(=O)(Nc1nc2ccccc2nc1NCCO)c1cccc(Cl)c1
-6%	O=C(c1cc(C(F)(F)F)cc(C(F)(F)F)c1)N1CCC2(CC1)CCN(c1ccncc1)CC2
-13%	CCC1=C2CC[C@H]3C(=O)N(c4ccccc4)C(=O)[C@H]3[C@H]2[C@@]2(C)C(=NCc3ccccc3)OC(=O)N2C1=O
-9%	O=C(CN1CCN(c2ncccn2)CC1)NCc1ccccc1
?	CC1(C)CC(=O)c2c(nc3ccccc3c2N)C1
-6%	CC(NC(=O)c1ccc(F)cc1)c1ccc2c(c1)CCCC2 (stereo unspecified)
-4%	Cc1cc(C)nc(SCCCn2c(=O)[nH]c3ccccc32)n1
-13%	C=CCc1cc(C=O)cc(OC)c1OCc1ccc(Cl)cc1
-11%	Cc1ccc(-c2nnc(Nc3ccc(C(N)=O)cc3)c3ccccc23)cc1S(=O)(=O)NCC1CCCO1 (stereo unspecified)
-14%	O=C(CSc1nccn1-c1ccccc1)c1ccc(Br)cc1
-1%	CCn1c(/C=C/N(C(C)=O)c2ccccc2)[n+](CC)c2ccc(Cl)cc21
1%	Cc1ccc(C(c2sc3ncnn3c2O)N2CC(C)CC(C)C2)cc1 (stereo unspecified)
?	CC(C)(C)NC(=O)Cn1nnc(-c2ccccc2Cl)n1
-4%	Cn1nnnc1SCc1cc(=O)n2ccsc2n1
-4%	C=CCNC(=S)NNC(=O)c1csc(CC)c1

Remaining list, next part
HPGD inh	structure
?	COc1ccc(OC)c2sc(NC(=O)C3=COCCO3)nc12
-11%	CCOc1ncccc1C(=O)NCc1ccccc1
-14%	Cc1ccc(NC(=O)c2ccc(CSc3nnc(C)s3)cc2)c(C)c1
-2%	Cc1cn(C2C=CC(CO)O2)c(=O)[nH]c1=O (stereo unspecified)
19%	Cc1cc(C)c2oc(C(=O)Nc3ccc(S(=O)(=O)N4CCCC(C)C4)cc3)cc(=O)c2c1 (stereo unspecified)
-1%	O=C(NCCO)c1nc2ccccc2s1
-14%	COc1ccc(NC(=O)Nc2ccccc2OC)cc1
-2%	CCOC(=O)c1[nH]c(C(=O)O)c(CCN(CC)CC)c1C
25µM*	N#Cc1ccccc1-n1c(N)c(C(=O)N2CCCC2)sc1=S
-17%	NC(=O)NC(=O)COC(=O)CCCc1c[nH]c2ccccc12
-13%	CCN1C(=O)C(O)(C2COC(C)(C)CC2=O)c2cc(Br)ccc21 (stereo unspecified)
-8%	COc1ccc(S(=O)(=O)N(C)CC(=O)O)c2ccccc12
-6%	CC(C)N(C(=O)CN(C#N)c1nc(N(C)C)nc(N(C)C)n1)c1ccccc1
-7%	Cc1nnc(SCC(=O)NCc2ccco2)n1-c1ccccc1
4%	CCc1oc(C(=O)O)cc1CN(CC)CC
-3%	CC(C)c1ccc(-c2nc(N3CCCCCC3)nc3n[nH]c(N)c23)cc1
-4%	CCOC(=O)NC(=O)CSc1nnnn1-c1ccc(Cl)cc1
-11%	CC(C)Nc1nc(NC(N)=S)nc(NC(C)C)n1
?	Cn1c(NCCO)nc2c(c1=O)C1(CCCCC1)Cc1ccccc1-2
-14%	Clc1ccc(Cn2ncc3c(N4CCCCC4)ncnc32)cc1
-4%	COc1ccc(OC)c(C2C(C(C)=O)=C(O)C(=O)N2c2ccc(O)cc2)c1 (stereo unspecified)
-18%	O=C(O)c1cc(/C=N\O)ccc1OCc1ccccc1
-3%	COC(=O)[C@H](C)NC(=O)Nc1ccc(C)c(C)c1
?	Cc1ccc(S(=O)(=O)NCc2ccc(/C=C(/C#N)C(=O)NCc3ccccc3)o2)cc1
-16%	c1ccc(C2=Nn3c(nnc3-c3n[nH]c4c3CCC4)SC2)cc1
?	c1ccc2nc(-c3nc4ccccc4[nH]3)ccc2c1
-18%	O=C(N/N=C/c1c(O)n(-c2ccc(Cl)cn2)c(=O)c2ccccc12)c1ccncc1
-3%	C=C(C)c1cccc(C(C)(C)NC(=O)Nc2ncccn2)c1
-30%	COc1ccc(-c2nc3cnccn3c2Nc2ccc(C)cc2)cc1
2%	N#C/C(=C(\O)CCl)c1nnc2n1CCCCC2
-3%	Cc1ccccc1Cn1c(=O)n(CCC(=O)NCc2ccc3c(c2)OCO3)c(=O)c2ccccc21
?	COc1ccc(Cl)cc1NC(=O)CCCN1C(=O)CCC1=O
-15%	Cc1cccc(OCCSCc2nc3ccccc3[nH]2)c1
0%	COc1ccccc1NC(=O)Nc1cc(NC(=O)Nc2ccccc2OC)c(C)nc1C
-15%	O=C(COCc1nc2ccccc2c(=O)[nH]1)NCC1CCCCC1
?	O=C(O)C(=O)/C(=C\c1ccccc1)c1ccc2ccccc2n1
-23%	Cc1ccc(C(c2c(C)nn(-c3ccccc3)c2N)c2c(C)nn(-c3ccccc3)c2N)cc1
-10%	COc1ccc(C(C)C)cc1S(=O)(=O)Nc1ccc(Cl)cn1
1%	Cc1ccc(C(=O)N/C(=C/c2ccc(F)cc2)C(=O)NCc2ccncc2)cc1
-10%	CC(C)C12CN3CC(C(C)C)(CN(C1)C3c1ccccc1)C2O (stereo unspecified)
-4%	CCOC(=O)Cc1nnc(Nc2ccc(C)cc2C)c2ccccc12
-12%	O=C(OCC(=O)N1CCCCC1)c1c[nH]c(=O)[nH]c1=O
-3%	COc1ccc(C2C(C(=O)Nc3ccccc3OC)=C(C)Nc3nnnn32)c(OC)c1 (stereo unspecified)
0%	Cc1ccc(-c2noc(-c3ccccc3C(=O)N3CCOCC3)n2)cc1
?	CCS(=O)(=O)c1ccc(C(=O)Nc2ccccc2)c(Cl)c1Cl
-10%	O=C1CC(c2ccccc2)Sc2ccccc2N1 (stereo unspecified)
-5%	CCN(CC)S(=O)(=O)c1ccc(NS(=O)(=O)c2ccc(OC)c([N+](=O)[O-])c2)cc1
-11%	COc1ccc(C(=O)C/C(=C\C(=O)c2ccc(C)cc2)c2ccccc2)cc1
1%	O=S1(=O)N=C(Nc2ccc(N3CCOCC3)cc2)c2ccccc21
-5%	CCN(CC)C(=S)NC(=O)c1ccc(Cl)cc1Cl
-2%	CCOc1cccc(NC(=O)c2ccc(S(=O)(=O)N(C)C)cc2)c1
-16%	COc1ccc(OCCC(=O)OCC(=O)NCc2ccco2)cc1
-15%	CCC(C)C(NC(=O)C1CCC(C)CC1)C(=O)Nc1cc(OC)ccc1OC (stereo unspecified)
-16%	CC1(c2cccs2)CC(c2cccs2)=C(C#N)C(=O)N1 (stereo unspecified)
-3%	Cc1c(C(N)=O)c(N)c(C(=O)c2ccccc2)n1-c1ccccc1
-9%	C/C(=N\NC(=O)CSc1nnc(C)s1)c1ccc(O)cc1

Additional entries follow.
HPGD inh	structure
-12%	CCCCNC(=S)N(C)/N=C/c1ccccc1F
?	CCN(CC)S(=O)(=O)c1ccc(NC2c3ncccc3C(=O)N2Cc2ccccc2)cc1 (stereo unspecified)
0%	CCOc1cc(/C=N/NC(=O)COc2ccc(C)cc2)ccc1OC(=O)c1cccs1
-11%	Cc1ccccc1Cn1nc(C)c(NC(=O)/C=C/c2cnn(C)c2C)c1C
-4%	COc1ccc(S(=O)(=O)N2CCN(C(=O)[C@@H]3CCC(=O)N3C3OC(=O)c4ccccc43)CC2)cc1 (stereo partly specified)
-17%	COc1ccc(CC(NC(C)=O)C(=O)NC2CCN(c3c4c(nc5ncnn35)CCC4)CC2)cc1 (stereo unspecified)
-7%	COc1ccc(CN2C(=O)c3ccccc3C2=O)cc1C(=O)Nc1ccc(C)cc1C
-19%	Cc1[nH]c2ccccc2c1C(=O)CNc1nccs1
-2%	CC(C)(Oc1ccc(Br)cc1)C(=O)N1CCc2ccccc21
-17%	c1cc2c(cc1Nc1nc(-c3ccc4c(c3)OCO4)cs1)OCCO2
0%	Cc1nc(NC(=O)c2cc(-n3cnnc3)ccc2Cl)ccc1Br
-2%	CS(=O)(=O)N(C(=O)NC(=O)NC1CCS(=O)(=O)C1)C1CCCCC1 (stereo unspecified)
-1%	COC(=O)c1ccc(OCC(O)CN(CCO)CC(O)Cn2ccc3ccccc32)cc1 (stereo unspecified)
-8%	O=C(Nc1ccc(N2CCCC2)cc1)c1ccc(Br)o1
32µM*	CCCC(=O)Nc1nc(C)c(-c2csc(Nc3ccccc3C)n2)s1

In the list so far, these contain an aryl thioether with sulfur outside any ring:
HPGD inh	structure
-19%	Cc1ccc(CNC(=O)CSc2nc3ccccc3c3nc(C)nn23)cc1
-17%	CC(Sc1ccc(Cl)cc1)C(=O)Nc1ccccc1-c1ccccc1 (stereo unspecified)
?	CCCCn1c(SCC(=O)NCCOC)nc2ccc(N3CCOCC3)cc2c1=O
-1%	COc1ccc(NC(=O)CSc2nnc(-c3ccccn3)n2Cc2ccco2)cc1OC
-14%	COc1ccccc1N1CCN(C(=O)CSc2nc(-c3ccccc3)cc(=O)[nH]2)CC1
-20%	Cn1c(SCC(=O)c2ccccc2)nnc1C1CC1
16µM*	Cc1ccc(SCCNC(=O)c2ccccc2)cc1
-4%	Cc1cc(C)nc(SCCCn2c(=O)[nH]c3ccccc32)n1
-14%	O=C(CSc1nccn1-c1ccccc1)c1ccc(Br)cc1
-4%	Cn1nnnc1SCc1cc(=O)n2ccsc2n1
-14%	Cc1ccc(NC(=O)c2ccc(CSc3nnc(C)s3)cc2)c(C)c1
-7%	Cc1nnc(SCC(=O)NCc2ccco2)n1-c1ccccc1
-4%	CCOC(=O)NC(=O)CSc1nnnn1-c1ccc(Cl)cc1
-9%	C/C(=N\NC(=O)CSc1nnc(C)s1)c1ccc(O)cc1

Assay outcomes from PubChem BioAssay.
